High-throughput results: PubChem, Broad Institute
Ecoli rRNA inh: selective bacterial rRNA inhibition in E. coli. E. coli WT GFP vs humanized-ribosome RFP mutants, fluorescence, 24 h; stronger effect = lower value; DMSO median 0, no signal -100. GFP signal change (wild-type ribosome), % (test concentration not listed). actives 1.6% (n = 350,000). AID 720706;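 active = significant combined selectivity score with lowered wild-type GFP, culture density cut under 30%, mutant RFP and density less affected; inactive = any of these conditions unmet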; note: one replicate is shown; some compounds called inactive have numbers as strong as hits
Ecoli rRNA inh OD600: also measured in Ecoli rRNA inh; calls as there; OD600 change, %; measured here: OD600 growth;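 optical density of the mix in the first replicate; 0 = DMSO median and -100 = no signal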
Ecoli rRNA inh RFP: second read-out of Ecoli rRNA inh, no call of its own (marks repeat the call); RFP signal change, %; measured here: RFP humanized mutant strains;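 first replicate; 0 = DMSO median and -100 = no signal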
Numbers without * were called inactive.

SMILES	Ecoli rRNA inh	Ecoli rRNA inh OD600	Ecoli rRNA inh RFP
COC(=O)C[C@H]1CC[C@@H]2[C@@H](COc3ccc(NC(=O)c4ccccc4OC)cc3C(=O)N2C)O1	-7.9	-13.9	1.0
C[C@@H]1CN([C@@H](C)CO)S(=O)(=O)c2ccc(C3=CCCCC3)cc2O[C@@H]1CN(C)C(=O)c1ccc(F)cc1	-0.7	12.3	-3.7
C[C@H]1CN([C@@H](C)CO)C(=O)Cc2cc(NS(=O)(=O)c3cccs3)ccc2O[C@@H]1CN(C)S(=O)(=O)c1ccc(Cl)cc1	-3.8	-8.9	1.8
COc1ccccc1S(=O)(=O)N[C@@H]1CC[C@@H](CCNC(=O)C2CCC2)O[C@@H]1CO	-0.9	3.8	-0.3
Cc1ccc(S(=O)(=O)N(C)C[C@@H]2Oc3c(cccc3N(C)C)C(=O)N([C@@H](C)CO)C[C@H]2C)cc1	-10.9	-21.9	-1.1
CCCN1C[C@@H](C)[C@@H](OC)CN(C)C(=O)c2ccc(NC(=O)c3ccc(F)cc3)cc2OC[C@H]1C	2.4	8.0	2.4
C[C@H](CO)N1C[C@H](C)[C@H](CN(C)S(=O)(=O)c2ccc(Cl)cc2)OCCCC[C@H](C)Oc2ccc(NC(=O)Cc3ccccc3)cc2C1=O	3.3	10.5	-2.1
COC(=O)c1ccc2nc(-c3ccc(C#N)cc3)c(Cc3cccc(Cl)c3)n2c1	15.9	13.9	6.4
Cc1cc(NC(=O)Cc2cn(C)c3ccccc23)ccc1Nc1cccnc1	-17.8	-40.0	-1.6
COc1ccc(S(=O)(=O)Nc2cccc3c2O[C@@H](CN(C)S(=O)(=O)c2ccccc2)[C@@H](C)CN([C@H](C)CO)C3=O)cc1	-7.7	-2.4	6.4
CCOC(=O)C1(C)CCN1C(=O)c1cc(-c2ccc(Cl)cc2)oc1C (stereo unspecified)	-24.9	-31.2	-6.2
C[C@H](CO)N1C[C@H](C)[C@H](CN(C)C(=O)c2ccccc2F)Oc2ncc(C#C[C@@H](C)O)cc2C1=O	5.2	9.1	0.4
CCN(CC)C(=O)c1ccc2sc([C@@H]3O[C@H](CO)[C@H](O)[C@H](O)[C@H]3O)nc2c1	4.4	8.7	-5.0
CC(C)(C)c1ccc(C(O)c2ncc(-c3ccc4ccccc4c3)[nH]2)cc1 (stereo unspecified)	-7.6	-16.5	7.8
C[C@H]1CN([C@@H](C)CO)C(=O)c2cccc(NC(=O)CCCCCC(=O)Nc3ccccc3N)c2O[C@@H]1CN(C)C(=O)NC1CCCCC1	1.1	2.4	-0.6
C[C@@H]1CN([C@@H](C)CO)C(=O)Cc2cc(NC(=O)CCC(F)(F)F)ccc2O[C@@H]1CN(C)S(=O)(=O)c1ccc(F)cc1	-1.3	2.7	-0.7
COCC#Cc1ccc2c(c1)O[C@H](CN(C)C(=O)CN(C)C)[C@H](C)CN([C@@H](C)CO)S2(=O)=O	3.3	4.4	-1.2
C[C@@H]1CN([C@@H](C)CO)C(=O)c2cc(NS(=O)(=O)c3cccs3)ccc2O[C@@H](C)CCCCO[C@H]1CN(C)S(=O)(=O)c1ccc(Cl)cc1	1.2	4.2	-0.7
C[C@H]1CN([C@@H](C)CO)C(=O)Cc2cc(NC(=O)c3ccncc3)ccc2O[C@H]1CN(C)Cc1ccc(C(=O)O)cc1	1.0	10.5	1.1
C[C@H](CO)N1C[C@H](C)[C@H](CN(C)C(=O)c2ccncc2)OCCCC[C@H](C)Oc2ccc(NC(=O)C3CCCCC3)cc2C1=O	-4.8	-3.2	0.7
C[C@@H]1CN([C@@H](C)CO)C(=O)c2cccc(NS(C)(=O)=O)c2O[C@@H]1CN(C)CC1CCCCC1	2.9	0.5	-0.6
CC(C)NC(=O)N[C@H]1CC[C@H](CCNC(=O)C2CCC2)O[C@@H]1CO	0.2	3.4	-0.5
C[C@@H]1CN([C@@H](C)CO)C(=O)c2cc(-c3ccc(F)cc3)cnc2O[C@H]1CN(C)Cc1ccc(F)cc1	-2.8	3.1	-0.5
O=C([C@H]1[C@H](CO)[C@H]2Cn3c(cccc3=O)[C@H]2N1Cc1ccccc1Cl)N1CCOCC1	2.8	1.8	-2.0
CCCNC(=O)C[C@@H]1C[C@H]2c3cc(NC(=O)Cc4ccncc4)ccc3O[C@H]2[C@H](CO)O1	-0.4	3.3	-1.6

Next entries:
SMILES	Ecoli rRNA inh	Ecoli rRNA inh OD600	Ecoli rRNA inh RFP
O=C(N[C@@H]1CC[C@H](CCNC(=O)C2CCCC2)O[C@H]1CO)c1ccccn1	2.7	11.8	1.7
O=C(C[C@H]1C=C[C@H](NS(=O)(=O)c2ccc(F)cc2)[C@@H](CO)O1)NCc1ccccc1F	1.3	6.5	-1.3
C[C@H](CO)N1C[C@H](C)[C@@H](CN(C)C(=O)CCCN(C)C)OCCCC[C@H](C)Oc2ccc(NC(=O)CCC(F)(F)F)cc2C1=O	-0.4	5.4	-0.3
O=C1c2c(-c3ccc(Br)cc3)noc2CCN1Cc1cn(Cc2cccnc2)nn1	-2.7	-20.2	-0.6
CO[C@H]1CN(C)C(=O)c2ccc(NC(C)=O)cc2OC[C@@H](C)N(C(=O)C2CCCCC2)C[C@H]1C	-3.0	-2.3	-0.9
Cc1ccc(S(=O)(=O)Nc2ccc3c(c2)C(=O)N([C@@H](C)CO)C[C@@H](C)[C@@H](CN(C)Cc2ccc(C(=O)Nc4ccccc4N)cc2)O3)cc1	-3.3	-2.0	14.0
C[C@H]1CN(C)C(=O)c2cc(N(C)C)ccc2O[C@H]1CN(C)C	-0.8	-2.7	-1.1
CO[C@@H]1CN(C)C(=O)c2ccc(NC(=O)CC(F)(F)F)cc2OC[C@@H](C)N(C(=O)C2CCOCC2)C[C@@H]1C	1.6	0.2	1.2
Cc1ccc(S(=O)(=O)N(C)C[C@H]2Oc3ccc(NC(=O)NC(C)C)cc3CC(=O)N([C@H](C)CO)C[C@@H]2C)cc1	-3.8	4.4	2.2
C[C@@H]1CCCCO[C@H](CN(C)Cc2ccc3c(c2)OCO3)[C@H](C)CN([C@H](C)CO)C(=O)c2cc(NC(=O)Nc3ccc(F)cc3)ccc2O1	-31.6	-36.2	18.0
COc1ccccc1S(=O)(=O)N[C@@H]1CC[C@H](CCNC(=O)C2CCOCC2)O[C@@H]1CO	1.8	-4.1	1.0
C[C@@H]1CN([C@@H](C)CO)C(=O)Cc2cc(NC(=O)Nc3ccccc3)ccc2O[C@@H]1CN(C)Cc1ccc(C(F)(F)F)cc1	3.1	-0.1	1.0
COc1ccc(C(=O)N2C[C@@H]3[C@H](c4ccccc42)[C@@H](CO)N3C(=O)Cc2ccccn2)cc1	-4.3	-1.7	1.2
CCOC(=O)C1(C)CCN1C(=O)c1ccc(OC)cc1OC (stereo unspecified)	1.8	9.3	-2.1
C[C@@H]1CN([C@H](C)CO)C(=O)c2cc(C#CCN(C)C)cnc2O[C@H]1CN(C)Cc1ccccc1F	0.3	9.0	-4.2
CO[C@H]1CN(C)C(=O)c2cc(NS(C)(=O)=O)ccc2OC[C@H](C)N(CC2CC2)C[C@@H]1C	2.8	1.0	-0.2
CN1CCN(C(=O)C[C@@H]2CC[C@@H](NC(=O)Nc3ccccc3F)[C@H](CO)O2)CC1	2.0	-4.6	-2.2
C[C@@H]1CN([C@@H](C)CO)S(=O)(=O)c2ccc(C#CCN(C)C)cc2O[C@H]1CN(C)CC1CCCC1	3.5	4.6	1.1
CC(C)CNC(=O)C1(C)CCCN1C(=O)c1cncc(Br)c1 (stereo unspecified)	7.8	5.3	-0.1
C[C@H](CO)N1C[C@H](C)[C@H](CN(C)S(=O)(=O)c2ccccc2)Oc2c(NC(=O)C3CCOCC3)cccc2C1=O	4.1	9.0	0.6
C[C@@H]1CN([C@H](C)CO)C(=O)c2cc(NC(=O)c3ccccc3)ccc2O[C@@H](C)CCCCO[C@H]1CN(C)C(=O)Nc1ccc(C(F)(F)F)cc1	2.7	-2.3	1.0
O=C(NC[C@@H]1N[C@@H](CO)[C@H]1c1ccc(C2=CCCCC2)cc1)c1ccc(F)cc1	-60.2	-79.8	-17.6
Cc1ccccc1-c1cnc2c(c1)C(=O)N([C@@H](C)CO)C[C@@H](C)[C@H](CN(C)C(=O)c1ccccc1)O2	-3.6	0.4	-1.6
COc1ccc(C(=O)N2CCOC2CNC(=O)C(=O)NCc2ccccc2)cc1 (stereo unspecified)	4.4	6.7	-2.1
C/C=C/c1ccc([C@H]2[C@@H](CO)N(Cc3cncnc3)C23CN(C(C)=O)C3)cc1	0.6	3.2	-2.5

Continuation.
SMILES	Ecoli rRNA inh	Ecoli rRNA inh OD600	Ecoli rRNA inh RFP
CC1(C(=O)NS(=O)(=O)c2ccc(Cl)cc2)CCN1C(=O)Cc1ccccc1 (stereo unspecified)	9.2	4.3	-3.4
C[C@@H]1CN([C@@H](C)CO)S(=O)(=O)c2ccc(C3=CCCCC3)cc2O[C@@H]1CN(C)C(=O)C1CCOCC1	-0.2	-5.4	0.4
CO[C@@H]1CN(C)C(=O)c2ccc(NC(=O)c3cccc(F)c3)cc2OC[C@@H](C)N(CC2CC2)C[C@@H]1C	-1.3	-4.1	-3.0
CC1(C(=O)NCc2cccc(C(F)(F)F)c2)CCN1Cc1ccc2ccccc2c1 (stereo unspecified)	-33.0	-42.1	7.4
CCCNC(=O)[C@H]1[C@H](CO)[C@H]2Cn3c(ccc(/C=C/c4ccccc4)c3=O)[C@H]2N1CC	-5.5	-11.1	3.5
COc1cccc(S(=O)(=O)N[C@H]2C=C[C@@H](CC(=O)NCc3ccc(Cl)cc3)O[C@H]2CO)c1	-4.7	-2.3	-4.8
CC(C)[C@@H]1COCn2nncc2CC[C@H](C)C(=O)N1	0.4	11.9	-1.7
C[C@H]1CN([C@@H](C)CO)C(=O)c2cccc(NC(=O)c3ccncc3)c2O[C@@H]1CN(C)Cc1ccccc1	-3.2	-1.3	1.1
CC(=O)N1CCN(c2ccc(N3CCN(Cc4ccccc4)[C@H](C)C3)c(C)c2)[C@@H](C)C1	-5.2	-0.8	6.7
COc1ccc(S(=O)(=O)Nc2cccc3c2O[C@@H](CN(C)C(=O)Nc2ccc(C(F)(F)F)cc2)[C@H](C)CN([C@@H](C)CO)C3=O)cc1	-3.5	-2.9	1.1
COc1ccc(S(=O)(=O)N(C)C[C@@H]2Oc3cc(C4=CCCC4)ccc3S(=O)(=O)N([C@@H](C)CO)C[C@H]2C)cc1	-1.3	-10.7	2.4
COc1ccccc1-c1ccc2c(c1)O[C@H](CN(C)S(=O)(=O)c1ccc(C)cc1)[C@@H](C)CN([C@H](C)CO)S2(=O)=O	1.2	-0.5	0.5
CC(C)NC(=O)N(C)C[C@H]1OCCCC[C@H](C)Oc2ccc(NS(=O)(=O)c3ccc(F)cc3)cc2C(=O)N([C@H](C)CO)C[C@H]1C	-2.5	-2.9	-2.3
CCN(C[C@@H]1[C@@H](c2ccccc2)[C@H](CO)N1CC1CC1)C(C)=O	-1.1	-9.3	-3.0
CCc1nc2ccc(C(=O)NCCN3CCOCC3)cn2c1N(CCC(C)C)CCN(C)C	1.2	-2.1	-1.6
COc1ccc(S(=O)(=O)Nc2ccc3c(c2)C(=O)N(C)C[C@H](OC)[C@@H](C)CN[C@@H](C)CO3)cc1	1.6	4.1	0.7
CCCC(=O)Nc1ccc2c(c1)OC[C@@H](C)N(C(=O)c1ccccn1)C[C@@H](C)[C@@H](OC)CN(C)C2=O	0.7	1.1	-2.5
COc1ccc(C#Cc2ccc3c(c2)O[C@H](CN(C)S(=O)(=O)c2ccccc2F)[C@@H](C)CN([C@H](C)CO)S3(=O)=O)cc1	1.7	13.9	0.6
COc1ccc2c3c([nH]c2c1)[C@H](CO)N(C(=O)C1CCCC1)CC31CN(Cc2cccc(F)c2)C1	-52.7	-74.9	-9.0
C[C@H](CO)N1C[C@H](C)[C@@H](CN(C)C(=O)Nc2ccc(C(F)(F)F)cc2)Oc2ccc(NC(=O)Cc3cn(C)c4ccccc34)cc2C1=O	-3.0	2.9	2.6
C[C@@H]1CN([C@@H](C)CO)C(=O)Cc2cc(NS(=O)(=O)c3cn(C)cn3)ccc2O[C@H]1CN(C)C(=O)Nc1ccc(C(F)(F)F)cc1	5.0	-0.1	-1.1
CN1CCN(C(=O)C2=NOC3(C2)C(=O)Nc2ccccc23)CC1 (stereo unspecified)	24.1	19.9	2.3
CN(Cc1ccccc1)C(=O)Cn1nnc(-c2ccccc2)c1COc1ccc2ccccc2c1	8.1	33.6	2.7
COCC#Cc1ccc([C@H]2[C@@H](CO)N3CCCCN(C(=O)NC4CCCC4)C[C@@H]23)cc1	8.6	6.0	-1.4
O=C(NCCN1CCCC1)[C@H]1[C@H](CO)[C@H]2Cn3c(cccc3=O)[C@H]2N1C(=O)c1ccccc1	2.8	0.8	-0.3
CCOC(=O)c1cc(=O)nc(N)s1	13.8	15.5	0.9
COc1cc(-c2cc3nc(NCCc4ccc(S(N)(=O)=O)cc4)ccn3n2)cc(OC)c1OC	-18.0	-12.6	0.7

Compound profiles (already shown). Order of values: Ecoli rRNA inh	Ecoli rRNA inh OD600	Ecoli rRNA inh RFP
COc1ccc(S(=O)(=O)Nc2cccc3c2O[C@@H](CN(C)C(=O)Nc2ccc(C(F)(F)F)cc2)[C@H](C)CN([C@@H](C)CO)C3=O)cc1 is entered as -3.5	-2.9	1.1
CC1(C(=O)NCc2cccc(C(F)(F)F)c2)CCN1Cc1ccc2ccccc2c1 (stereo unspecified) is entered as -33.0	-42.1	7.4
CC1(C(=O)NS(=O)(=O)c2ccc(Cl)cc2)CCN1C(=O)Cc1ccccc1 (stereo unspecified) is entered as 9.2	4.3	-3.4
CO[C@@H]1CN(C)C(=O)c2ccc(NC(=O)c3cccc(F)c3)cc2OC[C@@H](C)N(CC2CC2)C[C@@H]1C is entered as -1.3	-4.1	-3.0

Only part of the results is shown; rates above refer to the full screens.
